Assay outcomes as filed in PubChem BioAssay.
GIRK2 act: activators of human GIRK2 potassium channels; G protein-activated inward rectifier potassium channel 2 (Homo sapiens), P48051; HEK293-GIRK2 thallium flux, Thallos fluorescence; calls only for hits at 25 µM; 63,000 compounds, 0.05% hits;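 active = among the strongest 0.2% of first-round signals and kept after retests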;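 note: first round at about 10 µM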
Target sequence (P48051 whole entry, looked up): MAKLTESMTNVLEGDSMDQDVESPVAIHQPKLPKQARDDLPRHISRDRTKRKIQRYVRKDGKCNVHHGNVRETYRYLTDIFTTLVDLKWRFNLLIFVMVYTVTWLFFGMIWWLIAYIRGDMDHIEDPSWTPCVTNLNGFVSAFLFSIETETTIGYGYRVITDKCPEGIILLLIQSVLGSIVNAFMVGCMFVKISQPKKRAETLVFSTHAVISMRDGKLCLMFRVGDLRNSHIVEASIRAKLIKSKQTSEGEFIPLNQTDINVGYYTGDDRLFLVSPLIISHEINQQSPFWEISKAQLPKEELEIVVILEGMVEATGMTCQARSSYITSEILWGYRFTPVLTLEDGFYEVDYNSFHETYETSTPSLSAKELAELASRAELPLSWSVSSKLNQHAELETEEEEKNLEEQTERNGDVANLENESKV
Calls only; i = inactive. Not all compounds are listed; rates above refer to the full screens.

GIRK2 act	mol
i	CCCCc1ccc(-n2c(C)c(C)n3c4c(=O)n(CCOC)c(=O)n(C)c4nc23)cc1
i	Nc1ccc(-c2cccs2)cc1C(=O)O
i	COC(=O)c1sc2cccc(F)c2c1S(=O)(=O)N1CCN(c2ccc(C)cc2C)CC1
i	Cc1cc(N2CCN(C=O)CC2)n2cnnc2n1
i	COc1cc(COCC2CCN(CC(=O)Nc3ccc(C(N)=O)cc3)CC2)cc(OC)c1
i	Cc1cc2oc(=O)cc(CN3CCN(Cc4ccc5c(c4)OCO5)CC3)c2cc1C
i	COc1ccc(NC(=O)c2ccccc2NS(=O)(=O)c2ccc(C)cc2)c([N+](=O)[O-])c1
i	COC(=O)N1CCc2c(sc(NC(=O)C(C)C)c2-c2nc3ccccc3s2)C1
i	O=C(CCn1c(=O)[nH]c2ccccc2c1=O)NCCc1c[nH]c2ccccc12
i	O=C(c1ccc(Br)o1)N1CCC2(CC1)OCCCO2
i	COc1ccc(NC(=O)C(=O)NCC(O)c2ccc3c(c2)CCO3)c(OC)c1 (stereo not given)
i	CN(C)CC1COCCN1C(=O)c1cc(Cl)ccc1Cl (stereo not given)
i	COc1ccc(NC(=O)Nc2nc(CCC(=O)NCc3ccco3)cs2)cc1
i	COc1ccc(CN2C(=O)c3oc4ccccc4c(=O)c3C2c2cccc(F)c2)cc1 (stereo not given)
i	C#CCOCC1CCCN(C(=O)c2ccco2)C1 (stereo not given)
i	Cc1nc(-c2cccs2)sc1CNC(=O)Cc1cccs1
i	COc1ccc(SCCCC(=O)Nc2nc(-c3cccnc3)cs2)cc1
i	CS(=O)(=O)c1ccc2nc(N(Cc3ccccc3)C(=O)c3cccc(F)c3)sc2c1
i	COc1cccc2cc(C(=O)NCCC(O)c3ccoc3)c(=O)oc12 (stereo not given)
i	CC(=O)Nc1ccc(NC(=O)C(=O)NCCc2ccc3c(c2)CCCN3C)cc1
i	CCn1c(=O)c2c(nc3n2C(C)C(C)=NN3C(C)C)n(C)c1=O (stereo not given)
i	O=C1NC(=NCc2ccccn2)S/C1=C\c1ccc2ncccc2c1
i	Cc1cc(C(F)(F)F)nc(CCNC(=O)/C=C/c2ccco2)n1
i	Cc1cccc(NC(=O)COC(=O)c2ccc(C3Nc4ccccc4S(=O)(=O)N3)cc2)c1 (stereo not given)
i	O=C(C1CC1)N1CCC(CSCc2ccco2)CC1
i	COc1ccc(S(=O)(=O)Nc2ccccc2C(=O)Nc2ccc(OC)cc2[N+](=O)[O-])cc1
i	CCOc1cc(C)c(S(=O)(=O)NC2CC(C)(C)NC(C)(C)C2)cc1C
i	CC1CCCN(C(=O)C2CSCCC(=O)N2)C1 (stereo not given)
i	CCOc1ccc2nc(NC(=O)c3cc(=O)c(OC)c[nH]3)sc2c1
i	COc1ccc(OCCC(=O)Nc2cc(C)on2)cc1
i	Cc1ccc(N(CC(=O)OC(C)(C)C)S(=O)(=O)c2cccn3cnnc23)cc1
i	O=C(NCCn1cnc(-c2ccccc2)cc1=O)c1ccccc1C(F)(F)F
i	Nc1c2c(nc3ccccc13)CCCC2
i	CN(c1ccccc1)S(=O)(=O)c1ccc(C(=O)Nc2ccc(S(N)(=O)=O)cc2)cc1
i	CCSc1ccccc1C(=O)Nc1cc(C)nn1-c1nc2ccc(F)cc2s1
i	COc1cccc(C(=O)NCC(c2cccc3ccccc23)N2CCOCC2)c1OC (stereo not given)
i	O=C(NCCc1nc2ccccc2[nH]1)c1c2c(nn1C1CCS(=O)(=O)C1)CCC2 (stereo not given)
i	COc1cc2cc(CNc3ccccc3)c(=O)n(CC(=O)Nc3cccc(C)c3)c2cc1OC
i	CC(C)NC(=O)CCn1cnc2c([nH]c3ccc(Br)cc32)c1=O
i	O=C(CSc1nc2ccccc2n2cnnc12)Nc1cccc(Br)c1

A different layout for some results above.
structure | GIRK2 act
CCOc1cc(C)c(S(=O)(=O)NC2CC(C)(C)NC(C)(C)C2)cc1C | i
CC1CCCN(C(=O)C2CSCCC(=O)N2)C1 (stereo not given) | i

Carrying on:
GIRK2 act	mol
i	COc1ccc(CNC(=O)CSc2nccn2-c2cccc(C(=O)NCc3ccccc3)c2)cc1
i	O=C(COc1ccc(-c2ccccc2)cc1)Nc1cc(N2CCOCC2)ncn1
i	COCCN(Cc1ccoc1)C(=O)c1cc(-c2ccccc2)on1
i	COc1cccc(-c2cc(C(=O)NCc3ccccc3OC(F)(F)F)n(C)n2)c1
i	COc1ccc(CNC(=O)CC2CCCCN2S(=O)(=O)c2ccc(OC)cc2)cc1 (stereo not given)
i	CCC(C(=O)Nc1cc(C2CC2)nn1-c1nc(C)c(C)c(=O)[nH]1)c1ccccc1 (stereo not given)
i	Cn1c(Sc2ccc3ccccc3n2)nc2c1c(=O)[nH]c(=O)n2C
i	Cc1noc(CNS(=O)(=O)c2ccc(Cl)cc2)n1
i	Cc1cn2c(CCC(=O)N3CCOCC3)csc2n1
i	CCOC(=O)N1CCN(C(=O)c2ccc(=O)n(C)n2)CC1
i	Cc1cc(SCC(=O)Nc2ccc(F)cc2)nc(-c2cccnc2)n1
i	CCOC(=O)NCc1cc(-c2ccncc2)n(C2CCCC2)n1
i	O=C(NCC1CCN(Cc2ccccc2)CC1)C(=O)NCC(F)(F)F
i	CN(C)c1cccc(C(=O)N2CC(c3nc(-c4ccncc4)no3)C2)c1
i	CC1(O)CC(=O)c2c(cc(O)c3c2C(=O)c2cccc(O)c2C3=O)C1 (stereo not given)
i	Cc1noc(-c2ccc(NC(=O)CSc3nnnn3C)cc2)n1
i	O=C(NCCCc1ccccc1)N1CCOC(Cc2ccccc2)C1 (stereo not given)
i	O=C(NCc1ncc(-c2ccccc2)[nH]1)c1cc(=O)c2ccccc2o1
i	CN1CCN(C2=Nc3cc(F)ccc3Cc3ccccc32)CC1
i	O=C(CCCn1c(=O)[nH]c2ccccc2c1=O)N1CCN(c2ccc(F)cc2)CC1
i	Cc1ccc(C)c(S(=O)(=O)NC(C)C(=O)Nc2ccc(F)c(Cl)c2)c1 (stereo not given)
i	COC(=O)CSc1nc2c(c(=O)n(Cc3ccc(Cl)cc3)c(=O)n2C)n1C
i	CCOC(=O)c1cccc(NC(=O)c2nnn(-c3ccccc3OC)c2-c2ccccn2)c1
i	COc1ccc(S(=O)(=O)Nc2ccc(C(=O)Nc3sc4c(c3C#N)CCCCC4)cc2)cc1
i	CCOc1ccc(CC(=O)NCC(C)(O)Cc2ccc(OC)cc2)cc1 (stereo not given)
i	CCOc1ccc(N2C(=O)C3N=NN(Cc4nc(-c5ccccc5OCC)no4)C3C2=O)cc1 (stereo not given)
i	COc1ccc(CCNc2nc(C)nc3c2oc2ccccc23)cc1OC
i	COCCCn1c(C(=O)NCCC(C)C)cc2c(=O)n3cccc(C)c3nc21
i	O=C(Cc1cc(=O)[nH]c(SCc2ccc(F)cc2)n1)N1CCN(c2ccccn2)CC1
i	COc1cc(OC)c(-n2nnc(-c3nc(-c4ccc(C)cc4C)cs3)c2N)cc1Cl
i	CO[C@H]1C=C[C@@](C)(O)C=CC(=O)O[C@H](C)[C@@H](C)CCC=C1C
i	N#Cc1ccc(Cl)cc1NC(=O)C(=O)N1CCN(c2cccc(Cl)c2)CC1
i	CCOc1ccc(-c2ccc(OCCNS(=O)(=O)c3cc(C(F)(F)F)ccc3Cl)nn2)cc1
i	O=C(CSc1nnc2ccc(C(=O)Nc3cccc(F)c3)cn12)Nc1ccc(F)c(F)c1
i	CC(C)c1cc(=O)[nH]c(-n2nc(C3CC3)cc2NC(=O)CCc2ccccc2)n1
i	O=C1CCC(=O)N1c1cccc(Br)c1
i	O=C(CCCS(=O)(=O)Cc1ccccc1)Nc1nc(-c2ccc(Cl)cc2Cl)cs1
i	Cc1nc(N2CCN(C(=O)c3sc(-c4ccccc4)nc3C)CC2)cc(-n2cccn2)n1
i	O=C(CSc1ccc(-c2nc(-c3ccccc3)no2)cn1)Nc1ccc2c(c1)OCCO2
i	O=C(c1ccc(F)c(F)c1)N1CCCC(COCc2ccccc2)C1 (stereo not given)

Ordered by formula weight (low to high): 7 of the compounds above.
GIRK2 act	mol
i	O=C(c1ccc(F)c(F)c1)N1CCCC(COCc2ccccc2)C1 (stereo not given)
i	COc1ccc(CCNc2nc(C)nc3c2oc2ccccc23)cc1OC
i	COCCCn1c(C(=O)NCCC(C)C)cc2c(=O)n3cccc(C)c3nc21
i	COc1cc(OC)c(-n2nnc(-c3nc(-c4ccc(C)cc4C)cs3)c2N)cc1Cl
i	CCOC(=O)c1cccc(NC(=O)c2nnn(-c3ccccc3OC)c2-c2ccccn2)c1
i	O=C(CSc1ccc(-c2nc(-c3ccccc3)no2)cn1)Nc1ccc2c(c1)OCCO2
i	O=C(CCCS(=O)(=O)Cc1ccccc1)Nc1nc(-c2ccc(Cl)cc2Cl)cs1

Additional entries follow.
GIRK2 act	mol
i	Cc1cccc(CN2C(=O)C3(c4ccccc42)N(c2cccc(F)c2)C(=O)CS3(=O)=O)c1 (stereo not given)
i	O=C(NC(c1ccccc1)c1ccccc1)N(Cc1ccsc1)CC(F)(F)F
i	COCCCn1c(C(=O)NCCC2=CCCCC2)cc2c(=O)n(C)c(=O)n(C)c21
i	Cn1c(=O)c2cc(C(=O)NCc3ccccc3Cl)n(Cc3ccco3)c2n(C)c1=O
i	COc1cc(-c2nc(CSc3nc4ccccc4c(=O)n3C)c(C)o2)cc(OC)c1OC
i	Cn1cccc1C(CNC(=O)c1ccccc1C(F)(F)F)N1CCCC1 (stereo not given)
i	O=C(Cc1ccc(F)cc1)N1CCN(c2cc(Nc3ccccn3)ncn2)CC1
i	c1cncc(-c2noc(C3CN(Cc4ccsc4)C3)n2)c1
i	CCSc1nc(C)c(C(=O)Nc2ccccc2C)c(-c2ccc(OC)c(OC)c2)c1C#N
i	Cc1ccc(C(O)CNC(=O)CSc2ccc(F)cc2)o1 (stereo not given)
i	O=C(CSc1nnc(N2CCN(c3ccccc3)CC2)s1)OCc1ccccc1
i	Cc1ccc(F)cc1NC(=O)Cn1c(=O)nc(-c2ccccc2)c2ccccc21
i	CS(=O)(=O)N1CCC(C(=O)N2CCC(Oc3nc4ccc(F)cc4s3)CC2)CC1
i	COc1ccc(S(=O)(=O)N2CCCC(C(=O)N3CCNC(=O)C3C)C2)cc1 (stereo not given)
i	CCOc1cc(C(=O)Nc2ccc(-c3ccn[nH]3)cc2)cc(OCC)c1OCC
i	O=C(NCCc1c[nH]c2ccccc12)C1CCN(c2ccc(-c3ccco3)nn2)CC1
i	COc1cc(S(=O)(=O)NCc2ccccc2)ccc1F
i	Cc1ccc2nc(NC(=O)Cn3cnc(-c4ccccc4)cc3=O)sc2c1
i	O=C(NCCCO)c1cc2n(n1)CCCO2
i	O=C(NCCc1ccccc1)C(=O)NCc1ccc(C(O)c2cccs2)s1 (stereo not given)

4 records picked at random from those above:
GIRK2 act	mol
i	COc1cc(S(=O)(=O)NCc2ccccc2)ccc1F
i	O=C(NCCc1ccccc1)C(=O)NCc1ccc(C(O)c2cccs2)s1 (stereo not given)
i	c1cncc(-c2noc(C3CN(Cc4ccsc4)C3)n2)c1
i	O=C(NC(c1ccccc1)c1ccccc1)N(Cc1ccsc1)CC(F)(F)F

Following part:
GIRK2 act	mol
i	O=C(CN1CCN(CC(O)C2CC2)CC1)NC1CCCC1 (stereo not given)
i	CCC(C)c1ccc(Cn2c(C3CC(=O)N(C)C3)nc3ccccc32)cc1 (stereo not given)
i	CCCNC(=O)CCCCn1c(=O)c2ccccc2n(CC(=O)Nc2cccc(OC)c2)c1=O
i	CC(C)Sc1cccc(-c2nnc(NC(=O)c3cc(-c4ccco4)on3)o2)c1
i	O=C(c1cc2ccccc2o1)N1CCN(c2cc(N3CCOCC3)ncn2)CC1
i	O=S(=O)(NCC1(c2cccs2)CCCC1)c1cccnc1
i	COc1cccc(Cn2ccn3nc(-c4ccc(C)c(C)c4)cc3c2=O)c1
i	CCCCn1c(=O)c2c(nc3n(-c4ccccc4O)c(C)c(C)n23)n(C)c1=O
i	O=C(NCc1cccs1)Nc1nc(-c2cc3ccccc3o2)cs1
i	Cc1c(C(O)=C2C(=O)C(=O)N(CCCN(C)C)C2c2cccnc2)cnn1-c1ccccc1 (stereo not given)
i	O=C(NCC1CCN(S(=O)(=O)c2cccnc2)CC1)C1(c2ccccc2)CCOCC1
i	O=C(NCCc1cccs1)c1cc(OCc2ccccc2)no1
i	O=C(Nc1cnoc1)C1(c2ccc(Cl)cc2)CCCC1
i	COC(=O)CNC(=O)c1cc2c(=O)n3cc(C)ccc3nc2n1Cc1ccccc1
i	N#Cc1ccccc1NC(=O)CSc1cc(NCc2ccccc2Cl)ncn1
i	COC(=O)C1=C(C)NC(=O)NC1c1ccc(Cl)c(Cl)c1 (stereo not given)
i	NC(=O)c1ccc(NC(=O)CCc2csc(NC(=O)c3ccc[nH]c3=O)n2)cc1
i	COCCN1CCC(CNC(=O)c2ccc(Cl)cc2Cl)CC1
i	O=c1cccnn1CCCNS(=O)(=O)c1ccc2c(c1)CCCC2
i	CCn1nccc1C(=O)N(CCN(C)C)c1nc2c(OC)cccc2s1

2 of the compounds above, with each value named:
Cc1cc(C(F)(F)F)nc(CCNC(=O)/C=C/c2ccco2)n1
  GIRK2 act = i
Cc1cccc(NC(=O)COC(=O)c2ccc(C3Nc4ccccc4S(=O)(=O)N3)cc2)c1 (stereo not given)
  GIRK2 act = i

(next part)
GIRK2 act	mol
i	COC(=O)c1c(NCc2ccccc2Br)c2ccccc2[nH]c1=O
i	CC(C)c1cnc2c(c1SCc1ccc(Br)cc1)c(=O)n(C)c(=O)n2C
i	O=C(Cc1ccc(-c2ccccc2)cc1)NCCCn1ncccc1=O
i	Cc1cc(C)n(-c2nc(CCNS(=O)(=O)c3ccc(Cl)s3)cs2)n1
i	O=C(NC1CCc2ccccc21)c1ccc(CS(=O)(=O)Cc2ccccc2F)o1 (stereo not given)
i	O=C(CSc1cc(NCc2ccccc2Cl)ncn1)NC1CCCC1
i	O=C(CN1CC(c2nc(-c3cccs3)no2)C1)N1CCc2ccccc21
i	CC(C)Oc1ccc(C(=O)N(CCc2cccs2)Cc2ccco2)cc1
